K1F lysis inhibition = protection from phage-mediated lysis, alamar blue read-out – E. coli UTI89, K1F phage, bacterial capsule biogenesis inhibitors (AID 488966). inhibition, % at 100 µM; hits with a dose series show IC50 in µM. 340,000 tested, 0.02% active. E. coli UTI89 K1F phage lysis, alamar blue, 2 h; higher % means a stronger effect;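 active means phage lysis inhibition, versus mean bacterial control, above a set limit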;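 further: capsule biogenesis inhibitors block K1F phage lysis so surviving cells raise fluorescence; higher fluorescence means more inhibition of phage lysis; actives were called in the ten point dose series up to 300 µM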
Rac1 GTP hydrolysis = MgcRacGAP GTPase-activating activity inhibitors, confirmation, biochemical, ADP Hunter fluorescence; MgcRacGAP-stimulated Rac1 GTP hydrolysis, ADP Hunter fluorescence; higher % means a stronger effect; GST-tagged Rac1 F28L mutant substrate; inhibition, % at 30 µM, or IC50 in µM where a hit was titrated; 340,000 tested, 0.6% active;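 active means first-screen hits whose inhibition reached a set limit at any dose in the follow-up dose series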;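 further: fluorescence reports GDP produced by GAP-driven GTP hydrolysis; strong numbers were not always called active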
GPR55 beta-arrestin = GPR55 agonists via beta-arrestin recruitment, primary screen, imaging, U2OS cells, beta-arrestin-GFP redistribution (AID 1961); U2OS GPR55 beta-arrestin-GFP redistribution imaging; higher % means a stronger effect; activation, % at 10 µM; hits with a dose series show EC50 in µM; 290,000 tested, 0.048% active;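 active means activation above 40% with more than 50 cells counted in the well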;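 further: U2OS osteosarcoma cells stably expressing GPR55 and beta-arrestin-GFP; plate controls were DMSO negative control for no effect and LPI positive control for full effect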
GPR35 arrestin U2OS = inhibition of zaprinast-stimulated GPR35 beta-arrestin translocation – imaging, U2OS, beta-arrestin-GFP, zaprinast agonist, primary screen (AID 2058). 290,000 tested, 0.052% active. U2OS GPR35 beta-arrestin-GFP translocation imaging, zaprinast antagonism; higher % means a stronger effect. inhibition, % at 10 µM; hits with a dose series show IC50 in µM;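 active means inhibition of at least 50% with at least 30 cells and total cytoplasm GFP at most 10,000,000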
GPR55 antagonists = GPR55 antagonists blocking LPI-driven arrestin recruitment, primary screen, imaging, U2OS, beta-arrestin-GFP, LPI agonist (AID 2013) | U2OS GPR55 beta-arrestin-GFP translocation imaging, LPI antagonism; higher % means a stronger effect | inhibition, % at 10 µM; hits with a dose series show IC50 in µM | 290,000 tested, 0.13% active;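 active means spots per cell inhibited over 60%, with over 100 cells counted and total cytoplasm intensity under 500,000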;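 further: U2OS cells stably carrying GPR55 and arrestin-GFP stimulated by 5 µM LPI near EC80; imaged beta-arrestin-GFP aggregate spots per cell after agonist stimulation; plate controls were LPI-stimulated DMSO wells for no effect and DMSO wells without LPI for full effect; some results filed as inactive read as strong as hits; confirmed hits need IC50 under 10 µM and bright autofluorescent wells are also inconclusive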
* marks the source's active call; other numbers are inactive results; · = no result given; & = joins results of further samples; [ ] = remark or other dose. These rows are one share of the data; count on the stated rates, not on these rows.

# | SMILES | GPR55 beta-arrestin | GPR35 arrestin U2OS | K1F lysis inhibition
1 | CC(C)(C)NC(=O)[C@@H]1C[C@@H]2CCCC[C@@H]2CN1C[C@@H](O)[C@H](Cc1ccccc1)NC(=O)[C@H](CC(N)=O)NC(=O)c1ccc2ccccc2n1 | -0.1% | -8% | 4.3%&0.2%
2 | Brc1ccc(CSc2nnc(-c3ccccn3)n2Cc2ccco2)cc1 | 0.0% | 13% | 3.5%
3 | NCCNCCNCCN | -0.2% | -20% | 1.6%
4 | NC12CC3CC(CC(C3)C1)C2 | -0.2% | 2% | 2.8%
5 | CN1C(C(=O)Nc2ccccn2)=C(O)c2sccc2S1(=O)=O | -0.2% | -21% | -1.6%
6 | CN1[C@@H]2CC[C@H]1CC(OC(=O)C(CO)c1ccccc1)C2 (stereo partly specified) | 0.8% | -5% | 5.4%
7 | O=C(N/N=C/c1ccccn1)c1cccc([N+](=O)[O-])c1 | -0.3% | -16% | -3.4%
8 | COc1ccc(-c2nnc(NC(=O)c3ccc(F)cc3)o2)cc1 | 0.3% | 14% | -3.3%
9 | O=C(N/N=C/c1cccc2cccnc12)c1ccccc1O | -0.1% | 0% | -1.1%[50 µM]
10 | COc1cccc(C(=O)Nc2nnc(-c3ccc(Cl)cc3)o2)c1 | -0.1% | -18% | 5.6%

# | GPR55 antagonists | Rac1 GTP hydrolysis
1 | 5% | -2%&4%
2 | -7% | 8%
3 | -7% | -2%
4 | -2% | 2%
5 | 2% | 9%
6 | 5% | 5%
7 | 19% | 4%
8 | 9% | 10%
9 | 22% | 10%
10 | -7% | 2%

In the list so far, 2 have an aryl methoxy group.
# | SMILES | GPR55 beta-arrestin | GPR35 arrestin U2OS | K1F lysis inhibition
8 | COc1ccc(-c2nnc(NC(=O)c3ccc(F)cc3)o2)cc1 | 0.3% | 14% | -3.3%
10 | COc1cccc(C(=O)Nc2nnc(-c3ccc(Cl)cc3)o2)c1 | -0.1% | -18% | 5.6%

# | GPR55 antagonists | Rac1 GTP hydrolysis
8 | 9% | 10%
10 | -7% | 2%

Following part:
# | SMILES | GPR55 beta-arrestin | GPR35 arrestin U2OS | K1F lysis inhibition
11 | CN(C)CCC=C1c2ccccc2CCc2ccccc21 | -0.1% | -6% | 12%
12 | Cc1ccc(S(=O)(=O)NCc2ccc(C(=O)NCCN(Cc3ccccc3)C(C)C)cc2)cc1 | 1.0% | -5% | 0.2%
13 | CC(=O)O[C@H]1C(=O)[C@@]2(C)C([C@H](OC(=O)c3ccccc3)[C@]3(O)C[C@H](OC(=O)[C@H](O)[C@@H](NC(=O)c4ccccc4)c4ccccc4)C(C)=C1C3(C)C)[C@]1(OC(C)=O)CO[C@@H]1C[C@H]2O (stereo partly specified) | 0.5% | -1% | 0.3%
14 | CN1CCN(c2c(F)cc3c(=O)c(C(=O)O)cn(CCF)c3c2F)CC1 | -0.1% | -7% | ·
15 | O=[N+]([O-])c1c(Nc2ccccn2)cc(Cl)c2nonc12 | -0.1% | 3% | 0.6%
16 | C/C(=N\NC(=O)c1ccc(Cl)cc1)c1ccccn1 | -0.3% | 0% | 0.4%
17 | CN1[C@@H]2CC[C@H]1CC(OC(=O)[C@H](CO)c1ccccc1)C2 (stereo partly specified) | -0.1% | -8% | 1.8%
18 | CCOc1ccc(OCc2ccc(C(=O)N/N=C(\C)c3ccccn3)cc2)cc1 | 0.7% | 8% | 1.1%
19 | C[C@]12CC[C@@H]3c4ccc(O)cc4CC[C@H]3[C@@H]1CC[C@@H]2O | -0.1% | 4% | 5.9%
20 | Nc1ncnc2c1ncn2[C@@H]1O[C@H](CO)[C@@H](O)[C@H]1O | 0.1% | 0% | 1.4%

# | GPR55 antagonists | Rac1 GTP hydrolysis
11 | 2% | 3%
12 | 2% | 4%
13 | -10% | 2%
14 | -6% | ·
15 | 5% | 17%
16 | 26% | -1%
17 | 10% | 9%
18 | 20% | 10%
19 | -1% | 11%
20 | 3% | -8%

Of the compounds above, these have a nitro group on carbon:
# | SMILES | GPR55 beta-arrestin | GPR35 arrestin U2OS | K1F lysis inhibition
7 | O=C(N/N=C/c1ccccn1)c1cccc([N+](=O)[O-])c1 | -0.3% | -16% | -3.4%
15 | O=[N+]([O-])c1c(Nc2ccccn2)cc(Cl)c2nonc12 | -0.1% | 3% | 0.6%

# | GPR55 antagonists | Rac1 GTP hydrolysis
7 | 19% | 4%
15 | 5% | 17%

The listing continues:
# | SMILES | GPR55 beta-arrestin | GPR35 arrestin U2OS | K1F lysis inhibition
21 | CN(C)CC/C=C1\c2ccccc2COc2ccccc21 | 0.4% | -3% | 4.4%
22 | NS(=O)(=O)c1cc2c(cc1C(F)(F)F)NCNS2(=O)=O | -0.2% | 9% | -0.4%
23 | Cc1cc(NS(=O)(=O)c2ccc(N)cc2)no1 | -0.2% | -5% | 6.4%
24 | Nc1ccc(S(=O)(=O)c2ccc(N)cc2)cc1 | -0.2% | -6% | -4.3%

# | GPR55 antagonists | Rac1 GTP hydrolysis
21 | 9% | 9%
22 | 7% | -5%
23 | 2% | 3%
24 | 10% | -2%

Entries above with two or more sulfur atoms:
# | SMILES | GPR55 beta-arrestin | GPR35 arrestin U2OS | K1F lysis inhibition
5 | CN1C(C(=O)Nc2ccccn2)=C(O)c2sccc2S1(=O)=O | -0.2% | -21% | -1.6%
22 | NS(=O)(=O)c1cc2c(cc1C(F)(F)F)NCNS2(=O)=O | -0.2% | 9% | -0.4%

# | GPR55 antagonists | Rac1 GTP hydrolysis
5 | 2% | 9%
22 | 7% | -5%

Assay outcomes: PubChem BioAssay, several laboratories
